High-throughput results deposited in PubChem by Broad Institute.
rRNA inh HTS = inhibits bacterial ribosomal RNA function over humanized ribosomes; hit rate 1.6% among 350,000; GFP signal change (wild-type ribosome), % (test concentration not listed); AID 720706; E. coli WT GFP vs humanized-ribosome RFP mutants, fluorescence, 24 h; hits give low values; DMSO median 0, no signal -100;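 active = significant combined selectivity score with lowered wild-type GFP, culture density cut under 30%, mutant RFP and density less affected; inactive = any of these conditions unmet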; also: one replicate is shown; some compounds called inactive have numbers as strong as hits
Calb FLC = affects C. albicans growth with fluconazole | C. albicans CaCi-2 (fluconazole-resistant clinical isolate) + fluconazole, Alamar Blue growth, 48 h | growth inhibition, % (concentration not given with the values) | hit rate 0.57% among 300,000;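 active = most replicates above 75%; inconclusive = exactly half above 75%; inactive = most below 75%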;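 also: all wells also contain fluconazole at 8 µg/ml as a sub-toxic cotreatment; 0% = median of DMSO wells and 100% = median of geldanamycin control wells; wells of about 8 µL received 7.5 nL stock; the first replicate is given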
AF4-AF9 inh = inhibitors of human MLL-AF4/AF9 interaction | P42568 | AlphaScreen, biotin-AF4 peptide binding to FLAG-AF9 | inhibition, % at 10 µM | hit rate 0.47% among 350,000 | AID 651704;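 active = every replicate reaching a set inhibition limit, whatever the replicate mean, cut at about 25% in these data; inconclusive = mean inhibition reaches that limit but some replicates miss it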;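 also: 0% = plate neutral control median and 100% = total signal loss; the record names both 10 and 1 µM as test concentration; the first replicate is given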
Target sequence (P42568 whole entry, looked up): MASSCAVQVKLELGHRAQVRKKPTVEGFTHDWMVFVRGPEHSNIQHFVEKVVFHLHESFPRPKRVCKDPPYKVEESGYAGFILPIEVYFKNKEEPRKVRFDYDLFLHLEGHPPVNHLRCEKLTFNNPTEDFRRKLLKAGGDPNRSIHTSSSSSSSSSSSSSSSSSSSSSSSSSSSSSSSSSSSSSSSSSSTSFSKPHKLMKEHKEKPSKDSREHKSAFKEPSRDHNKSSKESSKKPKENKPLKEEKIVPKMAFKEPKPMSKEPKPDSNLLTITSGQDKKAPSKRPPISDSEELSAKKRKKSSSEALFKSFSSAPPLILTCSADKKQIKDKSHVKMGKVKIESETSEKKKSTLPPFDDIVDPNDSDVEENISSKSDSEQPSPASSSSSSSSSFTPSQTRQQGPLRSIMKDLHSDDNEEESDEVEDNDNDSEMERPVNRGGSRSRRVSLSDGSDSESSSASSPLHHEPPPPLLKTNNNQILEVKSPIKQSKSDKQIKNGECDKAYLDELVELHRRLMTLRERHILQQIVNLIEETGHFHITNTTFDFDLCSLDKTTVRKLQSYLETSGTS
Beta cell apopt = blocks beta cell apoptosis; INS-1E cytokine-induced death, ATP luminescence, 48 h; percent of positive-control rescue, neutral wells zero; AID 435005; hit rate 0.8% among 300,000; protection from apoptosis, % (no concentration beside the values);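 active = all replicates at 75% or more, or half of them and the mean; inconclusive = half reach 75% but not the mean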;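 also: 0% = cytokine-treated negative control wells and 100% = positive control rescue; higher means more ATP so stronger rescue from cytokine killing; wells of about 40 µL received 100 nL stock; the first replicate is given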
RanGTP-Imp inh = disruptors of Ran-importin-beta complex formation – biochemical, FRET, CFP-Ran, YFP-importin-beta, homogeneous, primary screen | cell-free CFP-Ran/YFP-importin-beta FRET ratio | inhibition, % (concentration not given with the values) | hit rate 1.1% among 300,000;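 active = most replicates above 15%; inconclusive = exactly half above 15%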;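 also: 0% = DMSO wells and 100% = Ran loaded with GDP instead of GTP; wells of about 40 µL received 100 nL stock; the first replicate is given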
ALR H2O2 inh = human ALR oxidase inhibition via reduced H2O2; P55789; AID 485317; inhibition, % (concentration not given with the values); purified ALR, DTT oxidation, H2O2 HRP-luminol luminescence; hit rate 3.8% among 290,000;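 active = mean and each replicate at 75% or more; inconclusive = only one of the two met; inactive = neither met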;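 also: stock transfer was 7.5 nL into about 7.5 µL; 0% = neutral wells and 100% = wells with inactivated enzyme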
Target sequence (P55789 whole entry, looked up): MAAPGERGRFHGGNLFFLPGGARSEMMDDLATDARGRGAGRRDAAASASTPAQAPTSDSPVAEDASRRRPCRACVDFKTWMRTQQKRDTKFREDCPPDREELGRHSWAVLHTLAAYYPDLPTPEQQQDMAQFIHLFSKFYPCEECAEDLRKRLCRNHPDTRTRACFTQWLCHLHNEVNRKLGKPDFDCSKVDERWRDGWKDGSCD
T cruzi inh = T. cruzi replication inhibition. inhibition, % (concentration not given with the values). hit rate 1.4% among 300,000. T. cruzi beta-gal in NIH3T3, luminescence, 90 h. AID 1885;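 active = mean inhibition across valid replicates above about 55%, limit read from the data; inconclusive = mean below that limit but half or more replicates reach it; inactive = mean below it, under half of replicates reach it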;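 also: signal also drops with host cell toxicity which is not excluded here; 0% = plate median of DMSO wells and 100% = zero luminescence signal; higher percent means less beta-gal luminescence so fewer parasites; stock transfer was 50 nL into about 50 µL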
FGF22 binding = binders of recombinant human FGF22 by thermal shift; Q9HCT0; SYPRO orange fluorescence; percent of sucrose octasulfate shift, DMSO zero; calls only at 9.99 µM; hit rate 1.5% among 340,000;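 active = melting point raised past a set limit in the mean and every replicate; inconclusive = no clear call; three in four hits are not shown here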
Target sequence (Q9HCT0 whole entry, looked up): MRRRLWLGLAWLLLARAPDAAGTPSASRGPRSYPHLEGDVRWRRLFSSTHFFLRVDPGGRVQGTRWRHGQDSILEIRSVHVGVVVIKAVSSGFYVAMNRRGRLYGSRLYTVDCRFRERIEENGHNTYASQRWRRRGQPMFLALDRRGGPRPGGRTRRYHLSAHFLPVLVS
rRNA inh HTS OD600 = further read-out of rRNA inh HTS, marked with its call; OD600 change, %; measured here: OD600 growth;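 optical density of the mix in the first replicate; 0 = DMSO median and -100 = no signal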
rRNA inh HTS RFP = second read-out of rRNA inh HTS, no call of its own (marks repeat the call); RFP signal change, %; measured here: RFP humanized mutant strains;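 first replicate; 0 = DMSO median and -100 = no signal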
Numbers without * were called inactive; i = inactive; ? = inconclusive; nt = no result given. The list is partial. The share of hits here may be higher or lower than overall.

SMILES	rRNA inh HTS	rRNA inh HTS OD600	rRNA inh HTS RFP	Calb FLC	AF4-AF9 inh	Beta cell apopt	RanGTP-Imp inh	ALR H2O2 inh	T cruzi inh	FGF22 binding
O=C(NCc1ccccc1)C(c1c(F)cccc1Cl)N(C(=O)c1csnn1)C1CC1 (stereo not drawn)	-1	7	-1.7	9	1.6	-5	2.9	-70	9	i
CC(C)CNC(=S)NNC(=O)c1nn(C)cc1Cl	nt	nt	nt	12	nt	-1	-2.0	nt	-12	nt
Cc1sc2ncn(CC(=O)Nc3cccc(S(N)(=O)=O)c3)c(=O)c2c1-c1ccccc1	-29*	-16*	2.3*	6	-1.5	0	-0.2	5	-12	i
CCC(C)n1c(SC(C)C#N)nc2ccccc2c1=O (stereo not drawn)	-13	-5	-3.4	30	4.2	-6	-0.2	0	11	i
CC(/C=C/c1ccc2c(c1)OCO2)=N/NC(=O)CNc1ccc(C)cc1	nt	nt	nt	0	nt	1	4.0	-3	1	nt
Cc1ccc(C)c(NC(=O)COC(=O)c2nc(Cl)ccc2Cl)c1	13	11	2.4	nt	-9.7	-4	nt	nt	nt	i
O=C(CSc1nnnn1-c1cccc2c1CCCC2)NC1CCCC1	nt	nt	nt	-3	nt	1	1.7	-2	25	nt
COc1ccc(C)cc1NC(=O)CCNS(=O)(=O)c1cccc2nonc12	-3	4	-0.6	2	1.6	-1	0.2	nt	11	i
CCOC(=O)Cc1csc(N/N=C/c2ccccc2)n1	3	-3	0.2	3	0.6	-6	-11	3	13	i
CCCOc1ccccc1C(=O)NC(CO)C(=O)O (stereo not drawn)	nt	nt	nt	-5	nt	-1	4.5	-5	-8	nt
c1ccc(OCCSc2nc3ccccc3[nH]2)cc1	nt	nt	nt	-16	nt	6	-2.4	-5	0	nt
CC1Cc2nc(SCC(=O)NCC3CCCO3)n(-c3ccc(F)cc3)c(=O)c2S1 (stereo not drawn)	9	11	-0.6	3	-0.3	-6	3.0	0	5	i
O=C(O)CCC(C(=O)O)n1c(O)c(C2=c3ccccc3=NC2=O)sc1=S (stereo not drawn)	nt	nt	nt	-4	nt	-6	3.4	-7	-18	nt
O=C(NC1CCCc2ccccc21)C1CCN(c2nnc(-n3cccc3)s2)CC1 (stereo not drawn)	-4	-2	-5.4	-3	4.9	10	-4.7	23	15	i
Cc1cc(C)nc(SCc2ccc(C(=O)N/N=C3\CC(C)CC(C)(C)C3)cc2)n1 (stereo not drawn)	3	12	0.4	-1	5.1	0	-1.6	-14	1	i
O=C(CO/N=C/c1ccccc1Cl)N1CCCc2ccccc21	nt	nt	nt	1	nt	nt	-0.1	-2	15	nt
Cc1[nH]nc2c1C1(CCN(Cc3ccccc3)CC1)C(C#N)=C(N)O2	nt	nt	nt	0	nt	-4	?	23	-2	nt
COc1ccc(/C=C/C(=O)N2CCN(c3ccccn3)CC2)c(OC)c1OC	-5	-10	0.6	13	1.2	0	2.7	0	1	i
Cc1occc1-c1nnc(SCC(=O)Nc2nc3ccccc3s2)o1	nt	nt	nt	52	nt	-15	-4.2	?	-3	nt
Cc1ccc(-n2nc(C(=O)c3ccccc3)n3c(=O)c(Cc4ccccc4)nnc23)cc1	nt	nt	nt	-8	nt	21	1.0	0	42	nt
COc1ccc(S(=O)(=O)Nc2ccc(-n3cccc3)cc2)cc1	-56	-75	-22	-21	8.9	-2	3.7	-6	3	i
COc1c(Cl)cc(Cl)cc1C(=O)Nc1ccc(CN2CCCCC2)cc1	15	5	-0.8	1	1.2	-2	1.0	-6	56*	nt
CCCn1c(-c2ccccc2)nc2c(=O)n(C)c(=O)[nH]c21	nt	nt	nt	-4	nt	1	2.4	15	-6	nt
O=C(O)c1ccccc1C(=O)N(c1ccccc1)c1ccccc1	5	4	-4.3	-6	-0.8	1	31*	-1	0	i
CCOC(=O)N1CCN(C(=O)CCNS(=O)(=O)c2ccc3c(c2)c(=O)n(C)c(=O)n3C)CC1	21	13	3.9	8	-1.0	2	-0.9	nt	11	i
COC(=O)C(C)Sc1nc2c([nH]c3ccccc32)c(=O)n1C (stereo not drawn)	nt	nt	nt	23	nt	nt	4.4	4	4	nt
COc1cccc(-c2ncc3ccccc3c2COC(=O)c2cccc(Br)c2)c1	-5	4	-7.6	nt	-1.6	3	nt	0	nt	i
CCOC(=O)c1ccc2nc(C)c(CC)c(Cl)c2c1	-10	-11	-3.5	15	-2.4	0	4.5	2	-3	i
CCCc1nn(C)c2c(=O)[nH]c(-c3cc(S(N)(=O)=O)ccc3OCC)nc12	-12	-3	-5.8	-2	0.7	2	-0.2	-20	-2	i
Cn1c(C(O)c2ccccc2)nc(Cl)c1Cl (stereo not drawn)	nt	nt	nt	-5	nt	-7	-1.5	0	-2	nt
CCOc1ccc(S(=O)(=O)Nc2cccc(C(=O)NCC(c3ccco3)N(C)C)c2)cc1 (stereo not drawn)	-3	-4	-1.4	-9	-14	0	5.2	-5	2	i
O=C(COc1ccccc1)Nc1ccccc1N1CCN(c2ccc(F)cc2)CC1	8	5	1.1	-7	-18	18	2.6	-3	15	i
CC(C)CN(C(=O)CSc1nncn1-c1ccccc1)c1c(N)n(CC(C)C)c(=O)[nH]c1=O	16	17	-2.0	-12	-1.9	-8	-2.4	0	4	nt
CCOc1ccc(S(=O)(=O)N2CCOCC2)cc1NC(=O)c1ccccc1F	5	7	-1.6	1	0.7	6	7.5	nt	10	i
Cc1cccc(C)c1NS(=O)(=O)c1ccc2c(c1)C(=O)c1ccccc1C2=O	nt	nt	nt	-18	nt	3	-2.3	-28	-6	nt
Cc1cccc(C(=O)Nc2ccccc2N2CCN(c3ccc(F)cc3)CC2)c1	nt	nt	nt	-6	nt	6	?	-40	32	nt
Cc1ccccc1NC(=S)N(C)C1(c2ccccc2Cl)CCCCC1=O (stereo not drawn)	nt	nt	nt	10	nt	-2	-2.2	1	11	nt
CC(Sc1n[nH]c(N)n1)C(=O)Nc1ccc(Cl)cn1 (stereo not drawn)	5	2	0.0	1	7.5	-4	6.2	-2	0	i
CCCCn1c(N)c(N(CC(C)C)C(=O)c2cccc(S(=O)(=O)N3CCCCCC3)c2)c(=O)[nH]c1=O	11	14	3.0	2	-1.4	nt	5.6	-8	-3	i
Cc1cccc(OCc2nc(-c3ccc(Br)o3)no2)c1	-7	-10	-1.9	-9	-1.2	-1	5.5	1	9	i
CNC(=S)/N=C(\Nc1ccc(C)cc1)c1ccccc1	-56	-83	-22	-2	-3.3	-3	0.7	nt	-6	i
COc1cc(CCCN2C(=O)C(=O)NC[C@@H]2CC2CCCCC2)cc(OC)c1OC	-1	-2	8.7	4	1.0	-3	-1.1	4	4	i
O=C(Nc1ccc(F)cc1)Nc1ccc(N2CCOCC2)c2nonc12	3	13	9.1	18	-2.2	2	3.0	13	-13	i
Cc1ccc(-c2nnc(NC3CCCCC3)c3ccccc23)cc1S(=O)(=O)N1CCN(C)CC1	nt	nt	nt	47	nt	14	0.6	4	36	nt
CCOC(=O)c1c(C)[nH]c(C(=O)COC(=O)c2ccc(O)cc2O)c1C	6	1	-4.4	18	-4.1	4	-0.6	4	19	i
CC(C)C(NC(=O)c1ccc(F)cc1)C(=O)N1CCC1 (stereo not drawn)	6	13	-1.7	nt	-0.7	-8	nt	0	nt	i
O=C(CNS(=O)(=O)c1ccccc1)NCC(=O)OCc1ccc(C(=O)c2ccccc2)cc1	nt	nt	nt	-1	nt	-7	-6.3	-53	10	nt
CCn1ncc([N+](=O)[O-])c1C(=O)Nc1c(C)cccc1C	1	1	-2.3	3	-1.9	-2	?	-5	3	i
Cn1ncc2c(NNC(=O)c3ccccc3Cl)ncnc21	9	10	-8.7	-5	-8.8	-2	-12	41	-7	i
Cc1cc(C)nc(NC2=NCC(=O)N2CCc2c[nH]c3ccccc23)n1	nt	nt	nt	0	nt	0	1.0	25	15	nt
Cc1cc(NC(=O)CCC(=O)N(Cc2cccs2)C(C)(C)C(=O)NC2CCCCC2)no1	3	-2	0.0	-7	1.0	-3	0.6	nt	-19	i
Cc1cc(/C(O)=C2\C(=O)C(=O)N(CCN(C)C)C2c2ccncc2)ccc1OCc1ccccc1 (stereo not drawn)	nt	nt	nt	4	nt	nt	?	4	-30	nt
COc1ccc(C(=S)N2CCOCC2)cc1OS(=O)(=O)c1ccccc1[N+](=O)[O-]	3	2	-2.1	11	7.9	1	2.4	-14	11	nt
Cc1ccc(-c2cc(C(=O)Nc3ccc(S(=O)(=O)Nc4nc(C)cc(C)n4)cc3)c3ccccc3n2)cc1	nt	nt	nt	?	nt	-2	-0.3	-1	20	nt
Cc1cc([N+](=O)[O-])c(-c2ccc(/C=N/n3cnnc3)o2)cc1Cl	-9	-11	3.8	0	-76	2	nt	-5	-8	i
C[C@H]1CCC[C@]2(O[C@@H](CCO)C[C@H](O)[C@H]2O)O1	11	21	23	2	nt	-5	2.2	-20	-19	i
COCCn1c(N)c(N(Cc2ccccc2)C(=O)Cc2c(Cl)cccc2Cl)c(=O)[nH]c1=O	9	-5	-1.2	-4	0.0	-2	7.9	2	-13	i
COc1cc(C(=O)NCC(c2cccnc2)N2CCN(c3ccc(F)cc3)CC2)cc(OC)c1OC (stereo not drawn)	nt	nt	nt	nt	3.2	4	nt	55	71*	i
COc1ccc(N2CCN(C(=O)c3cc([N+](=O)[O-])ccc3N3CCN(CCO)CC3)CC2)cc1	-7	5	-0.7	-5	2.7	nt	-0.8	11	15	i
CCc1cccc(CC)c1NC(=O)CNCc1cccs1	5	9	0.4	-1	1.6	nt	-2.3	nt	-18	i

(cont.)
SMILES	rRNA inh HTS	rRNA inh HTS OD600	rRNA inh HTS RFP	Calb FLC	AF4-AF9 inh	Beta cell apopt	RanGTP-Imp inh	ALR H2O2 inh	T cruzi inh	FGF22 binding
NC1=NCC(O)=C1c1nc2ccccc2[nH]1	17	10	1.4	35	-3.0	-3	-1.6	?	32	i
Cc1ccc(NC(=O)c2cc(=O)c3ccccc3o2)cc1	nt	nt	nt	-3	nt	-1	2.0	-3	-6	nt
O=C(NCCN1CCN(c2ccccc2)CC1)Nc1cccc(Cl)c1	-17	-21	1.9	-4	2.5	nt	1.6	61	-32	i
CCOc1ccc(NC(C)C(=O)N/N=C/c2ccc([N+](=O)[O-])cc2)cc1 (stereo not drawn)	nt	nt	nt	-12	nt	-7	0.0	13	-10	nt
O=C(CN(c1ccccn1)S(=O)(=O)c1ccccc1)N/N=C/c1cccc([N+](=O)[O-])c1	nt	nt	nt	6	nt	-2	3.4	-7	-1	nt
O=C(Nc1ccc(-c2cn3ccccc3n2)cc1)c1cccs1	-18	-10	-7.8	-17	0.4	nt	0.0	-3	4	i
COc1cccc(-c2nc3ccc(O)cc3c(=O)o2)c1	nt	nt	nt	7	nt	-10	4.9	47	-13	nt
CC1=NN(Cc2cc(C(C)(C)C)c(O)c(C(C)(C)C)c2)C(=O)C1	15	10	-4.5	6	1.5	-14	3.6	-4	-27	i
